Screening results as filed in PubChem BioAssay.
HBB splicing: qHTS Assay for Modulators of Hemoglobin Beta Chain Splicing. actives 0.06% (n = 65,000). Potency, µM (titrated, usually from 46.1 µM), for inactives: at the top dose activation, actives largely listed as activators. HBB splicing reporter cell assay, activation; EGFP reporter with mutant IVS2-654 intron; response scale: normalised to 500 nM splice-correcting PNA. AID 925, 2007; also: potency is read from the fitted curve at half-maximal effect; 0% is about no effect
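HeLa cells stably expressing EGFP interrupted by mutant beta-globin intron 2 (IVS2-654), 500/well in 2% FCS. Treated with compound for 2 days at 37C. Splicing correction scored as total well GFP intensity (488 nm excitation, 500-520 nm emission); 500 nM antisense PNA served as control.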
ERK AVP block: qHTS Assay for Inhibitors of the ERK Signaling Pathway using a Homogeneous Screening Assay | actives 0.99% (n = 72,000) | HEK293-V1b, vasopressin-stimulated pERK AlphaScreen | Potency, µM (series often up to 57.5 µM), inactives show at the highest dose activity, negative = inhibition, usual class: inhibitors; also: potency is read from the fitted curve at half-maximal effect; % is scaled to controls: 0 for no effect and ±100 for the full control effect; nearly all actives have a fitted effect of over 55% in size
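V1b-HEK293 cells; cpd 30 min 37C; 25 nM vasopressin 5 min; lyse 10 min; AlphaScreen beads 5 hr RT. Normalized to DMSO basal and 25 nM vasopressin; AC50 by Hill fit.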
Pol III holo inh: qHTS Assay for Inhibitors of DNA Polymerase III Holoenzyme System; reconstituted DNA polymerase III holoenzyme replication, biochemical; Potency, µM (highest dose often 57.1 µM), for inactives: at the top dose activity change, negative = inhibition; actives 0.25% (n = 71,000); AID 603, 2007; also: potency is read from the fitted curve at half-maximal effect; % is scaled to controls: 0 for no effect and ±100 for the full control effect
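Reconstituted *E. coli* holoenzyme (0.35 nM Pol III, 1 nM beta, 154 nM SSB, 2 nM primase) was preincubated with compound for 15 min at RT. Synthesis on 1.4 nM ssM13Gori ran 35 min, then was stopped with PicoGreen/EDTA and read as dsDNA fluorescence.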
FLuc inh: qHTS Assay for Inhibitors of Firefly Luciferase; Luciferin 4-monooxygenase (Photinus pyralis), P08659; purified firefly luciferase, luminescence, 8 min; Potency, µM (highest dose often 57.1 µM), without a hit: at the highest dose activity change, negative = inhibition, usual class: inhibitors; actives 2.2% (n = 72,000); AID 411, 2009; also: potency is read from the fitted curve at half-maximal effect; % is scaled to controls: 0 for no effect and ±100 for the full control effect; nearly all actives have a fitted effect of over 40% in size
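Inhibition of light generation by firefly luciferase from ATP and luciferin was profiled with concentration-response curves per sample, ATP held at 10 uM within the enzyme's linear range. Plates were read by luminescence after an 8-minute ambient incubation.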
TexasRed autofl: qHTS Assay for Spectroscopic Profiling in Texas Red Spectral Region. max dye-equivalent concentration, M. actives 0.06% (n = 59,000). AID 587, 2007. Compound fluorescence, Texas Red channel, 547/618 nm; active compounds read high; in the data active = max dye-equivalent concentration above about 10 nM; inconclusive = between about 1.1 nM and that limit
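Compound titrations in 100 mM Tris pH 8.0 were incubated 15 min at room temperature and read at 547 nm excitation / 618 nm emission. Texas Red six-point standard curve on each plate converted fluorescence to dye-equivalent concentration.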
Rhodamine fluor: qHTS Assay for Spectroscopic Profiling in Rhodamine Spectral Region; Rhodamine-region fluorescence, 547/598 nm, Tris buffer; active compounds read high; max dye-equivalent concentration, M; actives 0.05% (n = 59,000); AID 594, 2007; in the data active = max dye-equivalent concentration above about 11 nM; inconclusive = between about 1.1 nM and that limit
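Intrinsic compound fluorescence, ex 547 / em 598 nm, CCD imager. Tris 100 mM pH 8.0; 15 min RT. Output = rhodamine dye-equivalent concentration at each compound concentration.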
CRE-bla Fsk: Cell signaling CRE-BLA (Fsk stim); CHO CRE-bla reporter (cAMP response element driving beta-lactamase), forskolin EC10, beta-lactamase ratio; Potency, µM (top dose mostly 38.2 µM), inactives show at the highest dose activity change, negative = inhibition, usual class: activators; actives 2.5% (n = 71,000); AID 662, 2007; active = well fitted activation curve with a large enough effect in the signal ratio, with a control signal flat, not every such curve was filed as active; inconclusive = small, poorly fitted or top-dose-only effect, or effect the other way, or a change in a side signal; the % refers to the signal ratio; also: potency is read from the fitted curve at half-maximal effect; % of control where 0% means no effect
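CHO CRE-bla cells, overnight plating in Opti-MEM with 0.5% dialyzed FBS; cpd titration + EC10 NKH 477, 3 h 37 °C; CCF4 2 h RT; ex 405/em 460 vs 530 ratio → %Activity, AC50.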
Hsp90 Hop PPI: qHTS Assay for Disrupters of an Hsp90 Co-Chaperone Interaction | AID 595, 2007 | AlphaScreen TPR2A-His6 binding biotin-Hsp90 C-terminal peptide | Hsp90 C-terminal peptide / TPR2A (Hop) interaction, human | Potency, µM (titrated, usually from 57 µM), for inactives: at the highest dose activity change, negative = inhibition | actives 0.44% (n = 71,000); active = well fitted curve in either direction with a large enough effect; inconclusive = small, poorly fitted or top-dose-only effect, or another doubt; also: potency is read from the fitted curve at half-maximal effect; % is scaled to controls: 0 for no effect and ±100 for the full control effect; many of its hits are not listed in these tables
15-hLO inh: qHTS Assay for Inhibitors of 15-hLO (15-human lipoxygenase); purified 15hLO-1, xylenol orange hydroperoxide absorbance; AID 887, 2007; Potency, µM (series often up to 57.1 µM), for the others: at the highest dose activity change, negative = inhibition, actives largely listed as inhibitors; actives 1.4% (n = 74,000); Polyunsaturated fatty acid lipoxygenase ALOX15 (Homo sapiens), P16050; also: potency is read from the fitted curve at half-maximal effect; % is scaled to controls: 0 for no effect and ±100 for the full control effect; nearly all actives have a fitted effect of over 55% in size
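Compounds were preincubated 15 min at room temperature with 40 nM purified human enzyme (25 mM Hepes pH 7.5, 0.01% Triton X-100); 50 uM arachidonic acid reacted 6 min. Fe-xylenol orange detection, 30 min, absorbance ratio 573/405 nm.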
Tau filament bind: qHTS Assay for Tau Filament Binding. AID 596, 2007. Microtubule-associated protein tau (Homo sapiens), P10636. recombinant tau filaments, thioflavin S fluorescence, 15 h; filaments grown with octadecylsulfate alongside compound. actives 2% (n = 71,000). Potency, µM (highest dose often 57.1 µM), inactives show top-dose activity change, negative = inhibition;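 also: potency is read from the fitted curve at half-maximal effect; % is scaled to controls: 0 for no effect and ±100 for the full control effect; actives lower thioflavin S fluorescence by blocking filaments or displacing dye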
Target sequence (P10636 whole entry, looked up): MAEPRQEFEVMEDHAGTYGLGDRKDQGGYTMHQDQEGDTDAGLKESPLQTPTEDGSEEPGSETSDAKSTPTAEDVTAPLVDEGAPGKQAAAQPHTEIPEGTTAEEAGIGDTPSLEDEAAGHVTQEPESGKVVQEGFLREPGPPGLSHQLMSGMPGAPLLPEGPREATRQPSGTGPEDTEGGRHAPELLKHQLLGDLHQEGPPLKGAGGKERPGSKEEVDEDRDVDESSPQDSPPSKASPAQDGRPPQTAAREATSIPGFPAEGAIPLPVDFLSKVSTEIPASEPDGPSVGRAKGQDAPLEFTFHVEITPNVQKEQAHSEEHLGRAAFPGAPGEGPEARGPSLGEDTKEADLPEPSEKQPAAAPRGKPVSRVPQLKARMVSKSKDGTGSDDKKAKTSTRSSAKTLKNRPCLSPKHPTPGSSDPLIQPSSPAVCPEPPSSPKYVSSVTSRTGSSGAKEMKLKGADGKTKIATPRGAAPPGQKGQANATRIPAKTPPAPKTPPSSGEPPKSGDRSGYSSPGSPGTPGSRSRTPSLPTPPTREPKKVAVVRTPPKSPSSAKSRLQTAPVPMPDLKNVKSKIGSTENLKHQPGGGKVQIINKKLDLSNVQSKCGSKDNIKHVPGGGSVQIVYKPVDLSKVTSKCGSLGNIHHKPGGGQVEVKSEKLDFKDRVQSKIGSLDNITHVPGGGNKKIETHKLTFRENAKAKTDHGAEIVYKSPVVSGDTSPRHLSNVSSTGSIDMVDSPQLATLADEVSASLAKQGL
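Read-out: ThS fluorescence, 450 nm excitation/510 nm emission; lower signal marks blocked filament formation or displaced dye. Tau at 1 uM with 30 uM ODS, 10 uM ThS, 5 mM DTT, 100 mM NaCl, 10 mM HEPES pH 7.4; 15 h, 37 C.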
Starred values were filed as active, the others as inactive; i = inactive; ? = inconclusive; . = no result given; [ ] = another dose, or the depositor's remark. Unless noted, calls follow the shape of the dose curve; as a rule, active = well fitted curve in the direction sought with a large enough effect; inconclusive = small, poorly fitted or top-dose-only effect, or another doubt; inactive = no such curve, though single readings can be large; an effect the other way counts as inactive or inconclusive. Only part of the results is shown; rates above refer to the full screens.

entry | Molecule | HBB splicing | ERK AVP block | Pol III holo inh | FLuc inh | TexasRed autofl
1 | Cc1noc(C)c1-c1nc(N2CCOCC2)c2ccccc2n1 | 0.1% | 11% | -13% | 0%[2.29 µM] | i
2 | Cc1c(C(=O)Nc2ccccc2)sc2nc(-c3ccccc3)cn12 | -1.2% | 5% | 6% | -20% | i
3 | Clc1ccccc1-c1nc(NCCN2CCOCC2)c2ccccc2n1 | 1.3% | -16% | -5% | 2%[2.29 µM] | i
4 | COc1cccc(C(=O)Nc2cc(C)c3c(=O)oc4ccccc4c3n2)c1 | 0.9% | . | -4% | 4% | .
5 | COc1ccccc1NC(=O)c1ccc(Cl)c(S(=O)(=O)N2CCOCC2)c1 | -2.3%[0.0738 µM] | -24% | -6%[11.4 µM] | -3% | .
6 | CCN(c1ccccc1)S(=O)(=O)c1ccc2[nH]cc(C(=O)N3CCOCC3)c(=O)c2c1 | -0.4% | 10% | ? | 0% | i
7 | CCN(CC)S(=O)(=O)c1ccc(C(=O)Nc2ccc(OCC(=O)N3CCOCC3)cc2)cc1 | 0.2%[9.22 µM] | 11% | -2% | -25% | .
8 | CCOC(=O)Cn1c(N)c(C(=O)OC)sc1=S | 0.7%[0.369 µM] | -8% | 2% | -1% | i
9 | O=C(C1CCCCC1)N1CCCC(c2nc(-c3ccc(F)cc3)no2)C1 (stereo unspecified) | -1.5% | -27% | -4% | 0% | ?
10 | CCC(=O)Nc1ccc(-c2nn3c(C)nnc3s2)cc1C | -2.7% | 13% | -7% | 1% | i
11 | CCNc1ncc2ncc(=O)n(CCOC)c2n1 | 0.7% | -18% | -9% | 0%[11.4 µM] | i
12 | CCOC(=O)C(Sc1nnc2c3ccccc3n(CC)c2n1)C(=O)OCC | -0.4% | -4% | -4% | -2% | i

entry | Rhodamine fluor | CRE-bla Fsk | Hsp90 Hop PPI | 15-hLO inh | Tau filament bind
1 | i | ? | ? | -15% | -13%
2 | i | -9% | 0% | -14% | 190%
3 | i | -9% | 2% | ? | -10%
4 | . | ? | -1% | 7% | 3%
5 | . | ? | 0%[11 µM] | -2%[11.4 µM] | 1%[11.4 µM]
6 | i | -4% | 3% | -2% | -8%
7 | . | 4% | 0% | 5% | 4%
8 | i | 4% | -1% | -20% | 8%
9 | i | ? | 1% | -3% | 4%
10 | i | -5% | 3% | 2% | -5%
11 | i | -3% | 2% | ? | 56%
12 | i | ? | 2% | -24% | -5%

Arranged by number of heavy atoms (lowest first): part of the list above
entry | Molecule | HBB splicing | ERK AVP block | Pol III holo inh | FLuc inh | TexasRed autofl
1 | Cc1noc(C)c1-c1nc(N2CCOCC2)c2ccccc2n1 | 0.1% | 11% | -13% | 0%[2.29 µM] | i
2 | Cc1c(C(=O)Nc2ccccc2)sc2nc(-c3ccccc3)cn12 | -1.2% | 5% | 6% | -20% | i
3 | Clc1ccccc1-c1nc(NCCN2CCOCC2)c2ccccc2n1 | 1.3% | -16% | -5% | 2%[2.29 µM] | i
4 | COc1cccc(C(=O)Nc2cc(C)c3c(=O)oc4ccccc4c3n2)c1 | 0.9% | . | -4% | 4% | .
7 | CCN(CC)S(=O)(=O)c1ccc(C(=O)Nc2ccc(OCC(=O)N3CCOCC3)cc2)cc1 | 0.2%[9.22 µM] | 11% | -2% | -25% | .

entry | Rhodamine fluor | CRE-bla Fsk | Hsp90 Hop PPI | 15-hLO inh | Tau filament bind
1 | i | ? | ? | -15% | -13%
2 | i | -9% | 0% | -14% | 190%
3 | i | -9% | 2% | ? | -10%
4 | . | ? | -1% | 7% | 3%
7 | . | 4% | 0% | 5% | 4%

Some of these compounds in order of the Pol III holo inh value, largest number first:
entry	molecule	Pol III holo inh	FLuc inh	TexasRed autofl	Rhodamine fluor	CRE-bla Fsk	Hsp90 Hop PPI	15-hLO inh	Tau filament bind
2	Cc1c(C(=O)Nc2ccccc2)sc2nc(-c3ccccc3)cn12	6%	-20%	i	i	-9%	0%	-14%	190%
7	CCN(CC)S(=O)(=O)c1ccc(C(=O)Nc2ccc(OCC(=O)N3CCOCC3)cc2)cc1	-2%	-25%	.	.	4%	0%	5%	4%
1	Cc1noc(C)c1-c1nc(N2CCOCC2)c2ccccc2n1	-13%	0%[2.29 µM]	i	i	?	?	-15%	-13%

New compounds follow.
entry | Molecule | HBB splicing | ERK AVP block | Pol III holo inh | FLuc inh | TexasRed autofl
13 | CCOC(=O)N1CCN(C(=O)c2cc(-c3ccc(OCC)cc3)nc3ccccc23)CC1 | -4.8%[57.5 µM] | ? | -7% | 0.79µM* | i
14 | CCc1nc(N)c(C#N)c(-c2ccco2)c1C | -0.3%[9.22 µM] | -7% | -4% | 2% | .
15 | CCOc1cccc(C(=O)Nc2cccc(-c3nnc(-c4ccc(C)cc4)o3)c2)c1 | 0.5% | 1% | 3% | 3% | ?
16 | CCOC(=O)c1sc(NC(=O)CCn2nnc3ccccc32)c(C(=O)OCC)c1C | 0.3% | -8% | -6% | -2% | i
17 | CS(=O)(=O)N1CCc2cc(-c3csc(NCC4CCCO4)n3)ccc21 (stereo unspecified) | . | 0% | -5% | -6% | i
18 | O=C1CSC(c2ccccc2F)N1c1cc(Cl)ccc1O (stereo unspecified) | 0.0% | 17% | -1% | -1% | i
19 | COc1ccccc1-n1c(SCC(=O)Nc2ccc3c(c2)OCO3)nc2c(c1=O)SCC2 | -2.0% | -23% | 2% | -2% | i
20 | CCn1c(N)c(C(=O)Nc2ccccc2C(=O)OC)sc1=S | -2.0%[57.5 µM] | ? | 1% | -1% | i
21 | N#CC1=C(N)SC(N)=C(C#N)C1Cc1ccccc1 | -1.2%[9.22 µM] | 4% | -1% | -6% | .
22 | Cc1nn(C(=O)c2ccccc2)c2c1C(=O)CC(C)(C)C2 | -1.4% | -7% | -11% | -2% | ?
23 | CC(C)Cn1c(NCCN(C)C)nc2c1c(=O)[nH]c(=O)n2C | . | 20% | -2% | 0% | i
24 | CCc1n[nH]c2c1/C(=N\O)CC(c1ccccc1)C2 (stereo unspecified) | 2.2% | -8% | -5% | -3% | ?

entry | Rhodamine fluor | CRE-bla Fsk | Hsp90 Hop PPI | 15-hLO inh | Tau filament bind
13 | i | ? | 5% | -21% | -7%
14 | . | 10µM* | 3% | -2% | 7%
15 | i | -11% | -5% | 6% | 67%
16 | i | ? | 0% | -29% | 12%
17 | i | 12% | -8% | -10% | ?
18 | i | ? | -1% | -16% | 2%
19 | i | ? | -11% | -6% | ?
20 | i | ? | -9% | ? | 42%
21 | . | ? | -2% | ? | -15%
22 | i | -8% | 1% | -4% | 1%
23 | i | 2% | -4% | 3% | 0%
24 | i | -4% | -2% | -1% | 6%
